Assay outcomes (PubChem)
Beta apoptosis – beta cell apoptosis inhibition. INS-1E cytokine-induced death, ATP luminescence, 48 h; percent of positive-control rescue, neutral wells zero. protection from apoptosis, % (test concentration not listed). 0.8% of 300,000 active. AID 435005;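 active = all replicates at 75% or more, or half of them and the mean; inconclusive = half reach 75% but not the mean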;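 note: 0% = cytokine-treated negative control wells and 100% = positive control rescue; higher means more ATP so stronger rescue from cytokine killing; wells of about 40 µL received 100 nL stock; the first replicate is given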
Calb FLC – affects C. albicans growth with fluconazole. growth inhibition, % (no concentration beside the values). C. albicans CaCi-2 (fluconazole-resistant clinical isolate) + fluconazole, Alamar Blue growth, 48 h. AID 1979. 0.57% of 300,000 active;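 active = most replicates above 75%; inconclusive = exactly half above 75%; inactive = most below 75%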;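 note: all wells also contain fluconazole at 8 µg/ml as a sub-toxic cotreatment; 0% = median of DMSO wells and 100% = median of geldanamycin control wells; wells of about 8 µL received 7.5 nL stock; the first replicate is given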
Bfl-1 A1 inh – inhibitors of the anti-apoptotic protein A1, read as caspase activation; MEF A1-2A-BIM cells, Caspase-Glo 3/7 luminescence, 3 h; percent of clofoctol response, vehicle zero; caspase activation, % (concentration not given with the values); 0.066% of 330,000 active; AID 2462;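 active = over half of replicate activation scores above 10%, or exactly half above 10 with the replicate mean above 10; inconclusive = replicate mean below 10 yet half the replicates above 10; inactive = over half of replicates below 10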;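 note: wells of about 30 µL received 50 nL stock; many hits fall short of the cut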
RanGTP-Impb inh – disruptors of Ran-importin-beta complex formation – biochemical, FRET, CFP-Ran, YFP-importin-beta, homogeneous, primary screen; inhibition, % (concentration not given with the values); 1.1% of 300,000 active; cell-free CFP-Ran/YFP-importin-beta FRET ratio;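 active = most replicates above 15%; inconclusive = exactly half above 15%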;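 note: 0% = DMSO wells and 100% = Ran loaded with GDP instead of GTP; wells of about 40 µL received 100 nL stock; the first replicate is given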
LANA-H2B inh – blocks KSHV LANA binding to histone H2A/H2B; Q9QR71; cell-free LANA-H2A/H2B peptide, fluorescence polarization; inhibition, % (test concentration not listed); 0.6% of 320,000 active; AID 2629; in the data active = inhibition mostly above about 10%, no sharp cut-off; inactive = mostly below about 6.7%;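 note: stock transfer was 7.5 nL into about 10 µL; 0% = median of vehicle wells and 100% = median of positive control wells; one replicate is shown; the record names a cut of 25% in any replicate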
Target sequence (Q9QR71 whole entry, looked up): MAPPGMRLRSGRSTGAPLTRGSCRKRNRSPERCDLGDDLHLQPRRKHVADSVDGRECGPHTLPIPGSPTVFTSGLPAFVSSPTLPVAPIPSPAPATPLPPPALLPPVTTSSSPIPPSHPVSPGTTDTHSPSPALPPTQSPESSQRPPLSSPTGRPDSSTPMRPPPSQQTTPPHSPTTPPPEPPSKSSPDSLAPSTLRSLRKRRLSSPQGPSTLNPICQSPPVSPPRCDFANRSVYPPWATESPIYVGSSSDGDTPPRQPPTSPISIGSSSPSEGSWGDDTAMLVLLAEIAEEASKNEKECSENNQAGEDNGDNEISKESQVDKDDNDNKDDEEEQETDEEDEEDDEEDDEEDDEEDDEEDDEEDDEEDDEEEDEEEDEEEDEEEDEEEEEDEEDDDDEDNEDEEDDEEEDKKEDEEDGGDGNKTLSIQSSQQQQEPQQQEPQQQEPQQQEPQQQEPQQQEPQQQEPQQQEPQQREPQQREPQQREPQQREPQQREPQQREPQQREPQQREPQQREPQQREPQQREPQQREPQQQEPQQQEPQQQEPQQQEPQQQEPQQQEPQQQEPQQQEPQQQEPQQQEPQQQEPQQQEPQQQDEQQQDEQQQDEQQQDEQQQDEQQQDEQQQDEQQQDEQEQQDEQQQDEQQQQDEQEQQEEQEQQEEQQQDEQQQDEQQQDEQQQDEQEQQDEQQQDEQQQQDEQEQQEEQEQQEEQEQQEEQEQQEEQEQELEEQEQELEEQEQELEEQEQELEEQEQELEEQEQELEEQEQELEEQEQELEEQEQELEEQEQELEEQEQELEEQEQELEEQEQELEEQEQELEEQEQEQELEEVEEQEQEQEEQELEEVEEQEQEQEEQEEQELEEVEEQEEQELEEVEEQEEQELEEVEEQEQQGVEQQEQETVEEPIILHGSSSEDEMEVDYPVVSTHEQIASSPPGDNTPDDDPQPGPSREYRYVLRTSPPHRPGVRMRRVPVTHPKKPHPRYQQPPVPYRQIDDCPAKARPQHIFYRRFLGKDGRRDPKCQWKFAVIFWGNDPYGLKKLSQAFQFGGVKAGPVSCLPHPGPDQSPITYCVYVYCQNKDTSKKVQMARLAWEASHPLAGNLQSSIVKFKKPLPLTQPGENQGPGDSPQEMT
Beta2AR agonist – agonists of human beta-2 adrenergic receptor inducing internalization. P07550. Am2.2-beta2AR cells, FAP receptor internalization, flow cytometry; reference of the scale not given here. response, % (no concentration beside the values). 0.43% of 340,000 active. AID 504454;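 active = response above a set limit, near 3 SD of response in nonfluorescent compounds, cut at about 42% in these data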;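 note: stock transfer was 100 nL into about 11 µL; a reference agonist was the positive control; negative values mostly stem from fluorescent compounds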
T cruzi repl – T. cruzi replication inhibition | T. cruzi beta-gal in NIH3T3, luminescence, 90 h | inhibition, % (concentration not given with the values) | 1.4% of 300,000 active | AID 1885;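 active = mean inhibition across valid replicates above about 55%, limit read from the data; inconclusive = mean below that limit but half or more replicates reach it; inactive = mean below it, under half of replicates reach it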;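 note: signal also drops with host cell toxicity which is not excluded here; 0% = plate median of DMSO wells and 100% = zero luminescence signal; higher percent means less beta-gal luminescence so fewer parasites; stock transfer was 50 nL into about 50 µL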
UCH37 inh – human UCH37 deubiquitinating enzyme inhibition; inhibition, % (test concentration not listed); purified proteasome/UCH37, Ub-AMC cleavage fluorescence; Q9Y5K5; 0.33% of 330,000 active;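 active = mean of two replicates above 20%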;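 note: 0% = compound-free wells with enzyme and 100% = wells lacking proteasome; stock transfer was 100 nL into about 20 µL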
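Material: Human UCH37 enzyme supplied as purified proteasome complex | Schedule: 30 min compound-proteasome preincubation then 25 min substrate reaction, room temperature | Detection: AMC fluorescence from Ub-AMC cleavage, excitation 355 nm, emission 460 nm | Benchmarks: Wells without proteasome as full block, compound-free enzyme plus substrate as uninhibited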
* = called active by the depositor; i = inactive; ? = inconclusive; . = not tested or not shown.

SMILES,Beta apoptosis,Calb FLC,Bfl-1 A1 inh,RanGTP-Impb inh,LANA-H2B inh,Beta2AR agonist,T cruzi repl,UCH37 inh
Cc1cc(Nc2ccc(F)cc2)n2nc(C)nc2n1,-3,-6,1.1,0.3,-0.7,-2,-7,3.7
COC(=O)C1=C(O)/C(=C\c2ccc(OCC(=O)Nc3ccccc3OC)cc2)N=C1C,0,9,1.1,-1.1,2.5,7,3,-26
O=C(CC12CCC(CC1)C2)NCc1ccc2c(c1)OCO2,5,-37,0.1,4.0,-9.2,6,-30,1.4
OCCC1CN(Cc2cnn(-c3ccc(F)cc3)c2)CCN1Cc1ccsc1 (configuration not stated),2,-18,-0.2,-0.1,-5.3,5,22,3.6
COc1cccc(NC(=O)CSc2nnnn2C2CCCCC2)c1,.,-5,.,-4.3,.,-21,7,3.5
CN(CC(=O)Nc1ccc(Cl)c(Cl)c1)C1CCCCC1,-9,0,-0.8,-3.5,0.1,11,19,5.1
CC(=O)Nc1ccc(S(=O)(=O)Nc2ccc(S(=O)(=O)Nc3ncccn3)cc2)cc1,0,-6,0.7,?,-1.2,0,-3,-1.6
COc1ccc(Cl)cc1-c1nc(SCC(=O)NC(C)C(C)C)n[nH]1 (configuration not stated),0,?,0.3,3.8,2.1,-12,11,2.3
O=C(CSc1nnnn1-c1cccc2ccccc12)N1CCOCC1,-3,-2,1.2,2.2,1.9,-1,11,1.1
NC(=O)CSC1=N/C(=C\c2ccco2)C(=O)N1c1ccc(OC(F)F)cc1,-2,18,-0.5,-0.1,-1.4,-15,7,4.7
Cc1oc(-c2ccccc2Cl)nc1CS(=O)(=O)CC(=O)NCCc1ccccc1,2,2,0.2,-0.8,-1.4,-6,11,-0.3
CCOCCCNCC(=O)Nc1cc(S(=O)(=O)N2CCOCC2)ccc1N1CCOCC1,-3,.,-0.9,.,1.9,1,.,3.0
Cc1ccc2c(c1)cc(CN(Cc1ccco1)C(=O)N1CCOCC1)c1nnnn12,6,-12,0.2,3.1,-2.8,-9,6,2.0
CC(C)c1ccc(/C=C/C(=O)NC(=S)NN2CCOCC2)cc1,0,-7,-0.5,.,-3.9,7,.,3.9
CC(=O)Nc1ccc(S(=O)(=O)NCC(=O)NNC(=O)COc2ccccc2Cl)cc1,-4,0,-0.5,-0.5,.,0,-11,2.4
Cn1c(SCC(=O)NCC2CCCO2)nc2scc(-c3ccccc3)c2c1=O (configuration not stated),15,.,-0.6,.,5.8,0,.,2.8
O=c1[nH]c(-c2ccc(O)cc2)nc2scc(-c3cccs3)c12,-4,-9,-3.2,1.0,-0.1,13,-4,-91
CC(OC(=O)c1cccc([N+](=O)[O-])c1)C(=O)NCc1ccc2c(c1)OCO2 (configuration not stated),-3,-17,-1.7,-2.9,0.0,-2,1,2.2
COCCNC(=S)NNC(=O)c1cccs1,-3,5,1.2,-3.6,5.3,-7,-4,4.1
O=C(CSc1ccccn1)N1CCNC1=O,4,.,-0.1,.,7.5,-5,.,-1.4
CCc1nnc(NC(=O)c2ccc(S(=O)(=O)N3CCOCC3)cc2)s1,1,3,1.3,3.6,7.8,-3,-1,7.6
COc1ccccc1C(=O)Nc1nc(-c2ccc3c(c2)OCCO3)cs1,-5,-7,0.6,-4.4,1.0,7,0,-24
CCCNC(=O)NS(=O)(=O)c1cnccc1Sc1ccc(Cl)c(Cl)c1,-37,12,-0.3,4.9,1.8,6,-26,3.7
Cc1ccccc1NC(=O)c1ccccc1NC(=O)c1cccs1,3,-5,-0.8,-2.0,4.6,2,10,3.9
Cc1ccccc1S(=O)(=O)N1[C@@H](c2ccccc2)C(C(=O)O)=CC[C@H]1c1ccc(Cl)cc1,5,.,0.0,.,-1.1,-2,.,3.8
COc1ccc(C(=O)O)nc1C,-2,-1,-0.1,5.8,-1.0,-2,-13,0.9
O=C(/C=C/c1ccco1)N1CCN(S(=O)(=O)/C=C/c2ccccc2)CC1,-12,8,0.3,2.0,.,-1,7,2.2
Oc1[nH]c2ccccc2c1N=Nc1ccc(F)cc1,-1,4,-6.2,-5.6,-4.1,6,0,2.3
N#Cc1ccc(Nc2nc(-c3ccc(O)cc3O)cs2)cc1C(F)(F)F,8,.,-1.0,.,2.7,7,.,.
NC(=O)CC(c1ccccc1)c1ccc2c(c1)OCO2 (configuration not stated),-7,1,2.7,-1.4,1.0,2,-4,0.9
CC(C)(C)NC(=O)c1ccc2c(c1)C(=O)N(C1CCCCC1)C2=O,2,25,-0.4,2.1,-1.9,15,-1,1.3
COc1nccnc1NS(=O)(=O)c1ccc(N=Cc2c(C)[nH]n(-c3ccccc3)c2=O)cc1,2,-1,0.0,7.6,-3.1,3,-29,19
CC1(c2ccccc2)NC(=O)N(Cc2ccc([N+](=O)[O-])cc2)C1=O (configuration not stated),-4,-5,-0.3,-1.5,2.4,2,-12,4.1
COc1ccc(OC)c(NC(=O)C2CCCN2C(=O)NC2CCCCC2)c1 (configuration not stated),-20,-1,0.6,3.1,0.2,-10,8,3.8
CCOC(=O)c1cnn2cc(-c3[nH]ncc3[N+](=O)[O-])cnc12,3,10,-0.2,?,-1.8,2,5,.
CN(C)c1ccc(NC(=O)Nc2cccc(Cl)c2)cc1,7,7,-6.2,-2.7,-0.9,6,9,4.0
O=C(CN1C(=O)NC2(CCCC2)C1=O)Oc1ccc2ccc(=O)oc2c1,4,.,0.4,.,-1.8,2,.,i
CCC1CCCCN1C(=O)CSc1nnc(-c2ccco2)o1 (configuration not stated),-3,.,0.3,.,-1.3,2,.,2.7
CCc1ccccc1NC(=S)NCC1CCN(c2ccc(OC)cc2)C1 (configuration not stated),9,-13,0.9,-4.8,4.4,-2,8,2.4
COc1ccccc1C(=O)Oc1ccc2ccc(=O)oc2c1,-3,-1,0.5,0.8,-3.1,8,-6,i
COc1ccc(C(=O)N[C@H](C(=O)NCC2CCCCC2)C(C)C)cc1,-3,-5,0.5,0.3,2.9,1,3,0.7
O=C(Cc1coc2cc3c(cc12)CCC3)NCC1(N2CCCCC2)CCCCC1,4,-58,-0.9,-1.1,4.0,7,41,3.0
CCc1ccc(NC(=S)Nc2ccc3[nH]c(=O)[nH]c3c2)cc1,-9,-9,-0.1,4.4,-2.6,1,-10,0.3
C/C(=N\N1C(=O)c2ccccc2NC1c1ccccc1)c1ccccc1O (configuration not stated),87*,23,-1.1,-1.0,5.6,0,66*,.
Cc1cccc(N2CCN(C(=O)c3ccc4c(c3)CCN4S(C)(=O)=O)CC2)c1C,.,8,.,1.7,.,-1,12,1.3
CCc1cc2c(=O)c(-c3ccon3)c(N)oc2cc1OC,11,19,-3.4,3.8,2.2,7,16,-1.4
COc1ccc2[nH]c(CN3CCN(C(C)C)C(CCO)C3)c(C)c2c1 (configuration not stated),-2,15,0.8,2.9,4.5,-3,45,-3.3
Cn1c(CSc2ncn[nH]2)nc2ccccc21,4,-9,-0.5,-6.1,-0.5,-1,-19,1.2
Cc1cc2c3c(c1C)C1(C(=O)N3C(C)(C)CC2C)C(C#N)=C(N)Oc2n[nH]c(C)c21 (configuration not stated),-3,26,0.7,-3.6,-8.1,19,5,6.3
c1csc(-c2ccc(N3CCOCC3)nn2)c1,25,-7,-9.5,-1.4,-3.7,-4,-4,-17
Cc1cc(C)c(S(=O)(=O)N2CCCC(C(=O)NCc3cccnc3)C2)c(C)c1 (configuration not stated),-4,1,0.0,-3.2,1.0,-9,3,7.0
Cc1cc(NC(=O)COC(=O)c2n[nH]c3ccccc23)no1,0,47,-0.2,1.3,1.8,-2,6,1.0
Cc1ccnc2nc(C(=O)OCCOc3ccc(Cl)cc3)nn12,-6,3,0.2,1.7,1.1,0,-7,3.8
O=c1c(-c2ccc(Cl)cc2)[n+]([O-])c2ccccc2n1OCc1ccccn1,-7,26,-0.4,2.8,0.3,-13,-8,-1.1
Cc1ccsc1C(=O)N(Cc1nnc(-c2ccccc2Cl)o1)C1CC1,5,-5,-1.1,-0.8,1.0,0,21,4.5
Oc1ccccc1C1CC(c2cccs2)=NC(c2cccc(Br)c2)N1 (configuration not stated),22,2,-1.4,-2.8,-6.1,9,2,1.4
COc1ccc(N(CC(=O)NCc2ccccc2)S(=O)(=O)c2c(C)noc2C)cc1,2,4,0.3,-1.5,-5.4,-2,-11,-1.0
Cc1ccc(S(=O)(=O)NCCC(=O)OCc2ccc([N+](=O)[O-])cc2)cc1C,-2,-2,1.7,2.7,-1.1,-2,10,2.3
COc1ccc(-c2noc(CCC(=O)NCC3CCCO3)n2)cc1 (configuration not stated),-5,1,0.8,4.0,1.2,-2,-10,5.4
CC(=O)OCC[n+]1c(C)n(-c2ccccc2)c2ccc(Cl)cc21,0,-18,-0.8,6.9,-0.4,3,3,0.3

Further results
SMILES,Beta apoptosis,Calb FLC,Bfl-1 A1 inh,RanGTP-Impb inh,LANA-H2B inh,Beta2AR agonist,T cruzi repl,UCH37 inh
CCCCN1CC(=O)N2[C@H]3c4ccc(OC)cc4OC[C@@H]3[C@H](c3ccccc3)[C@]2(C)C1=O,-2,.,0.3,.,-5.1,-14,.,0.2
Cn1c(SCc2cccc(Cl)c2)nc(C(F)(F)F)cc1=O,7,34,0.0,2.3,1.5,0,5,-1.3
NC(=S)NNc1cccc2cccnc12,.,48,0.3,?,-0.6,7,?,4.7
Cc1cc(C)cc(NC(=O)CSc2nnc(-c3cc(C)[nH]n3)n2N)c1,-4,-20,0.2,5.2,-2.1,-3,0,0.9
Cc1cccc(C)c1NC(=O)Nc1ccccc1-n1ccnc1,0,-16,-0.4,-2.1,1.7,-7,0,1.5
O=C(c1ccco1)N1CCN(Cc2cc(=O)c(OCc3ccccc3Cl)co2)CC1,2,-6,0.4,-2.3,-0.3,-2,9,5.4
Cc1ccc(C2=NN(C3=NN=C(N)Cc4ncnn43)C(O)(C(F)(F)F)C2)cc1 (configuration not stated),-5,-1,0.2,?,-4.0,9,-2,-2.0
COC(=O)c1ccc(C)c(NS(=O)(=O)c2ccc(C)c([N+](=O)[O-])c2)c1,0,4,-0.2,?,-0.5,22,4,-0.1
Nc1nc(NCc2ccco2)nc(N2CCCCC2)c1[N+](=O)[O-],-3,3,-0.2,-1.7,1.2,4,3,8.8
COc1ccc(S(=O)(=O)N2CCCCC2)cc1NC(=O)CCc1nc2ccccc2c(=O)[nH]1,-3,-9,-0.3,-0.9,-2.4,7,9,1.0
Cc1cccc(NC(=O)c2ccc([N+](=O)[O-])o2)n1,.,8,-0.3,1.9,0.1,5,33,3.9
COc1ccc(-c2cc3nc4c(c(=O)n3[nH]2)CCC4)cc1,-1,5,0.3,4.1,-2.7,-5,-4,-11
CCOC(=O)c1c(C)nc(-c2ccccc2)nc1NC(=O)CC,6,0,-0.2,0.2,-0.2,-8,2,0.3
C(/C=C/C=C/Nc1ccccc1)=Nc1ccccc1,-4,-23,0.5,2.8,-2.1,-8,-13,.
